Mtb betalactam: beta-lactam sensitization of Mtb H37Rv. inhibition, % at 25 µM. M. tuberculosis H37Rv growth with meropenem, percent inhibition; hits of this screen are not shown here. actives 0.27% (n = 330,000);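 active means about 74% or more and at least 40 points above the plate without the antibiotic, then above 30% in a dose series; inconclusive means first-round hits that could not be retested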;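 further: growth measured after seven days incubation then overnight dye step; 0% = bacteria only wells and 100% = bacteria with antibiotic; twin plates without the antibiotic show which effects depend on it; some results filed as inactive read as strong as hits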
Mtb H37Rv: M. tuberculosis H37Rv growth inhibitors, H37Rv strain (AID 1626) | M. tuberculosis H37Rv growth inhibition; higher % means a stronger effect | one-dose inhibition, % at 10 µM; IC50 in µM for titrated hits | actives 0.95% (n = 220,000);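 active means confirmed in a dose series; inconclusive means inhibition above 80% but not taken into the dose series; inactive means below 80% or under 30% at every dose of the series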;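 further: bacteria incubated seven days before Alamar blue readout; 0% = bacteria only wells and 100% = bacteria with antibiotic wells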
Arbovirus inh: antivirals against arbovirus infection. arbovirus infection cell-based antiviral screen. inhibition, % at 10 µM. actives 0.37% (n = 200,000). AID 1251;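 active means inhibition from about 30%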;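 further: bluetongue infection of BSR cells; cell survival read as ATP light after 72 h; 0% = infected wells without compound and 100% = uninfected wells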
RecA splice inh: inhibitors of M. tuberculosis RecA intein splicing; P9WHJ3; cell-free RecA intein splicing, fluorescence; actives 0.75% (n = 290,000); inhibition, %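 (about 9 µM by stock and volumes)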; in the data active means inhibition above about 30%; inconclusive means no clear call, values can overlap the other calls;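 further: 0% = vehicle wells and 100% = reference inhibitor control wells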
Target sequence (P9WHJ3 whole entry, looked up, canonical isoform): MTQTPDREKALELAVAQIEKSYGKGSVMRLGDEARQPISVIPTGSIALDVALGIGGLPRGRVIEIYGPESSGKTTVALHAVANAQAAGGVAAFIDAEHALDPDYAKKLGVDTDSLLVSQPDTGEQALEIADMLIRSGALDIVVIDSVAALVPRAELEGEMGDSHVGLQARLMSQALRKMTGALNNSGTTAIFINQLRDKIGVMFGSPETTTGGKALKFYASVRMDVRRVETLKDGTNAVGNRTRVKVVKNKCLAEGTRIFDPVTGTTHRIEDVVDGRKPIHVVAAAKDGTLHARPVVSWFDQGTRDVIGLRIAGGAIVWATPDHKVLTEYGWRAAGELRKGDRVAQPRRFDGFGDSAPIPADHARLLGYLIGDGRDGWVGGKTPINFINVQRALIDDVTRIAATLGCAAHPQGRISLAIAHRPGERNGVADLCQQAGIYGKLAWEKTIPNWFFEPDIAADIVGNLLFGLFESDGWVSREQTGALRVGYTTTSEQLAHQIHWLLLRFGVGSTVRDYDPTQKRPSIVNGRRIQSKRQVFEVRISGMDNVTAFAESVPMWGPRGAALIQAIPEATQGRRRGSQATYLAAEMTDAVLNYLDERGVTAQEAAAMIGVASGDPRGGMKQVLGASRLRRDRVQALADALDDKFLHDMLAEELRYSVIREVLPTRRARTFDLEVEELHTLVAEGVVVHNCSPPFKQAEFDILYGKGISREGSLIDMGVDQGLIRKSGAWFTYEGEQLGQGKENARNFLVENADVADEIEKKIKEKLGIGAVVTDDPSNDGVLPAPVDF
YopH inh: YopH (Yersinia) phosphatase inhibition | actives 0.16% (n = 140,000) | fluorescence Ex485/Em525 | inhibition, %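 (about 10 µM by stock and volumes)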;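 active means inhibition of 50% or more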;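 further: controls were vehicle for no effect and minimum signal wells for full effect; inactives centre near -20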
Arbovirus inh repeat: second read-out of Arbovirus inh, no call of its own (marks repeat the call); inhibition, %; measured here: 10K subset replicate screen; many hits read low in the repeat;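 first of two repeat runs on a subset; 0% = infected and 100% = uninfected wells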
* hit, by the source's call; i = inactive; ? = inconclusive; · = no result given. An excerpt, so the mix of outcomes need not match the whole.

A first look, 5 compounds:
SMILES | Mtb betalactam | Mtb H37Rv | Arbovirus inh | RecA splice inh | YopH inh | others
COc1cccc(NC(=O)CCC2CCN(C(=O)C3CC=CCC3)CC2)c1 (configuration not stated) | -6 | · | · | -0.1 | ·
Cc1ccc2c(c1)C(c1ccccc1)=NCC(=O)N2 | 9 | · | · | 1.5 | ·
CC(C)C[C@H]1CN=C(Nc2ccccc2)N1CCCC1CCCC1 | 28 | · | · | 5.1 | ·
CCCCn1c(N)c(N(CC(C)C)C(=O)c2cc(C)nc3ccccc23)c(=O)[nH]c1=O | -6 | · | · | -0.6 | ·
C[C@@H](C(=O)Nc1ccc2c(c1)OCCO2)n1nnc2ccccc2c1=O | 2 | · | · | -1.3 | ·

Results, from the first entry:
SMILES | Mtb betalactam | Mtb H37Rv | Arbovirus inh | RecA splice inh | YopH inh | others
COc1cccc(NC(=O)CCC2CCN(C(=O)C3CC=CCC3)CC2)c1 (configuration not stated) | -6 | · | · | -0.1 | ·
Cc1ccc2c(c1)C(c1ccccc1)=NCC(=O)N2 | 9 | · | · | 1.5 | ·
CC(C)C[C@H]1CN=C(Nc2ccccc2)N1CCCC1CCCC1 | 28 | · | · | 5.1 | ·
CCCCn1c(N)c(N(CC(C)C)C(=O)c2cc(C)nc3ccccc23)c(=O)[nH]c1=O | -6 | · | · | -0.6 | ·
C[C@@H](C(=O)Nc1ccc2c(c1)OCCO2)n1nnc2ccccc2c1=O | 2 | · | · | -1.3 | ·
COc1ccc(C(=O)CSc2nccn2C)cc1 | -5 | · | · | 4.5 | ·
NNC(=O)c1ccc2nc(-c3ccc(Br)cc3)cn2c1 | 23 | 10% | -16 | -7.2 | ·
O=S(=O)(Nc1nc2ccccc2s1)c1ccc(Br)s1 | 3 | -8% | 3 | -4.3 | -29
CN(C)c1ncc(S(=O)(=O)c2ccccc2)c(-c2ccccc2Cl)n1 | 5 | 1% | 0 | 7.8 | -6
CCOC(=O)N1CCN(Cc2nc(CC3CC3)no2)CC1 | 4 | -2% | 5 | -1.5 | ·
COC(=O)CCN1CCc2cc(N=Nc3ccc([N+](=O)[O-])cc3)ccc21 | 18 | 6% | · | -0.2 | ·
Cc1c(C(=O)NCCc2ccccc2)oc2ccccc12 | 7 | · | · | 8.5 | ·
CN(c1ccc(C(=O)NCCSCc2ccco2)cc1)S(C)(=O)=O | -2 | -2% | 6 | 0.4 | -11
COc1cc2nc(NC(=O)c3ccc(F)cc3Cl)sc(=O)c2cc1OC | -1 | · | · | 2.4 | ·
O=C1C=C(c2cccs2)CC(c2cccs2)C1n1cnc([N+](=O)[O-])c1 (configuration not stated) | 3 | 8% | 1 | -1.0 | -16
CCOc1ccc(C(=O)Nc2ccccc2-c2ccccc2)cc1Cl | 3 | -7% | -13 | -0.5 | -19
Cc1c(C(=O)N(CCO)Cc2ccccc2)oc2c(F)cccc12 | -2 | · | · | -0.3 | ·
Cc1ccc2cc(S(=O)(=O)NCCC(=O)O)ccc2c1 | -2 | 1% | 3 | 0.1 | -33
CCN1C(=O)[C@@H]2[C@@H](c3ccc(-c4ccc(F)cc4)cc3)N3CCCC[C@@]3(C(=O)OC)[C@@H]2C1=O | -2 | · | · | 0.5 | ·
CC(=O)c1c(C)cc(C)c(CSc2nc(C)cc(=O)[nH]2)c1C | 5 | -8% | 8 | 0.3 | -36 | Arbovirus inh repeat=6
O=C(NCC1CCCO1)/C(=C\c1cccs1)NC(=O)c1ccccc1 (configuration not stated) | -2 | -15% | 5 | -3.6 | ·
COc1ccc(N=C2CCCN2CC(N)=O)cc1 | 40 | 3% | -2 | -0.3 | -31
Cc1cc(C)c(S(=O)(=O)c2ccccc2)c(=O)[nH]1 | 5 | · | · | -1.3 | ·
CC1(C(=O)NC2CCCC2)CCC(=O)N1Cc1cccs1 (configuration not stated) | 8 | -2% | 4 | -1.4 | -8
CCOC(=O)NNc1ccccc1 | 95 | 55% | · | 0.1 | ·

(listing goes on)
SMILES | Mtb betalactam | Mtb H37Rv | Arbovirus inh | RecA splice inh | YopH inh | others
O=C(Nc1ccc(NC(=O)C2CC2)nc1)c1ccncc1 | 6 | 6% | -7 | 2.5 | -40
O=C(Nc1cccc(C(F)(F)F)c1)c1cnccn1 | 2 | 0% | -1 | -1.7 | ·
C#CCOc1ccc(/C=C2/C(=O)ON=C2C)cc1Cl | -6 | · | · | -2.7 | ·
COc1ccc(-c2csc(N3CCN(C(=O)c4ccccc4)CC3)n2)cc1 | -14 | -6% | -1 | 2.2 | -25
O=c1oc(-c2cccc(Cl)c2)nc2c1cnn2-c1ccccc1 | 89 | 22% | 9 | · | -16
CC(C(=O)Nc1ccc(S(N)(=O)=O)cc1)N1CCc2ccccc21 (configuration not stated) | -12 | 0% | 15 | -2.2 | ·
CC(=O)Nc1ccc(NC(=O)C(C)Sc2nc3ccccc3c(=O)n2Cc2ccco2)cc1 (configuration not stated) | -5 | · | · | 3.0 | ·
COc1ccc(NC(=O)CSc2nnc(-c3ccccc3C)n2N)cc1 | -6 | 0% | -6 | 1.4 | -43
CCOC(=O)NN1C(=O)c2ccccc2NC1c1ccccc1O (configuration not stated) | 3 | -5% | -1 | 1.3 | -11
COc1ccc2c(c1)c1nnc(SCC(=O)NC3CC3)nc1n2C | 3 | · | · | 2.1 | ·
CC(C)(C)NC(=O)C(=O)NN=C1CCCCCCC1 | 0 | -9% | -6 | -3.0 | ·
Cc1ccc(S(=O)(=O)NN=C2CCC(C(C)(C)C)CC2)cc1[N+](=O)[O-] (configuration not stated) | -4 | 7% | -15 | 2.7 | -25
CC(=O)Nc1cccc(NC(=O)C(F)(F)F)c1 | -2 | 1% | 5 | -0.9 | ·
OC(CN1CCC(c2c[nH]c3ccccc23)CC1)C(F)(F)F (configuration not stated) | -5 | · | · | 3.0 | ·
CCOc1ccc(-c2nc(CN(Cc3ccccc3)C[C@@H]3CCC(=O)N3)c(C)o2)cc1 | 42 | 12% | -22 | 4.3 | ·
O=C1CC(N2CCN(c3ccc(F)cc3)CC2)C(=O)N1Cc1ccccc1 (configuration not stated) | 0 | · | · | 0.3 | ·
COc1cc(CNc2ccc(O)cc2)cc(Br)c1OCc1ccccc1 | 3 | 9% | -6 | 20 | ·
CCn1c(=NC(=O)c2ccc(N3C(=O)CCC3=O)cc2)sc2c(OC)ccc(OC)c21 | 1 | 7% | 6 | -1.7 | · | Arbovirus inh repeat=4
Cc1cc(C(=O)OCC(=O)N2CCC(c3ccccc3)=N2)ccc1[N+](=O)[O-] | 4 | · | · | 6.2 | ·
COc1ccc(NC(=O)C2CCN(S(=O)(=O)c3ccc4c(c3)CC(C)N4C(C)=O)CC2)cc1OC (configuration not stated) | -1 | · | · | -0.1 | ·
Cc1ccc(COc2ccc(/C=N/NC(=O)CN3CCCCC3)cc2)cc1 | 37 | 24% | 7 | 3.5 | ·
C=CCOc1cccc(C2c3c(oc4ccc(F)cc4c3=O)C(=O)N2CCCN2CCOCC2)c1 (configuration not stated) | -5 | -2% | 9 | 0.2 | · | Arbovirus inh repeat=4
COc1ccc([N+](=O)[O-])cc1N(CC(=O)NCCSc1ccccc1)S(C)(=O)=O | 3 | -5% | -1 | -2.1 | ·
Cc1nc(Nc2ccc(Cl)cc2)c(C#N)c(=O)[nH]1 | -3 | · | · | -0.9 | ·
COCCNS(=O)(=O)c1cc(OC)ccc1OC | -1 | -1% | 4 | · | ·

The final 2 entries of the section before come first, to join the parts:
SMILES | Mtb betalactam | Mtb H37Rv | Arbovirus inh | RecA splice inh | YopH inh | others
Cc1nc(Nc2ccc(Cl)cc2)c(C#N)c(=O)[nH]1 | -3 | · | · | -0.9 | ·
COCCNS(=O)(=O)c1cc(OC)ccc1OC | -1 | -1% | 4 | · | ·
Cc1ccccc1NC(=S)N(Cc1ccco1)C(C)c1ccccn1 (configuration not stated) | -5 | -5% | 4 | 0.3 | ·
O=C(N[C@H](CO)Cc1ccccc1)c1ccco1 | 1 | -12% | · | -0.2 | ·
CC(C)N1CCc2c(sc(NC(=O)CN3C(=O)c4ccccc4C3=O)c2C(N)=O)C1 | -2 | 7% | 0 | · | ·
COCC(C)NC(=O)c1cc2cccc([N+](=O)[O-])c2[nH]1 (configuration not stated) | -4 | 32% | · | 2.4 | ·
CCC(C)(C)NC(=O)C(c1ccncc1)N(Cc1cccs1)C(=O)Cn1nnc2ccccc21 (configuration not stated) | -7 | -2% | -1 | 2.5 | -22
COC(=O)C(C)n1nnc2sc(-c3ccccc3)cc2c1=O (configuration not stated) | -1 | 2% | 9 | -13 | ·
COc1ccc(-c2noc(CN(C)C(=O)c3ccoc3C)n2)cc1 | -6 | · | · | 1.0 | ·
Cc1cc(NC(=O)CCC(=O)N(c2ccccc2)C2(C(=O)NC3CCCCC3)CCCC2)no1 | -7 | · | -20 | 0.0 | -40
CCOC(=O)Cc1cnc(NC(=O)c2ccccc2)s1 | -3 | -11% | -2 | 6.4 | -35 | Arbovirus inh repeat=-2
Cc1ccc(S(=O)(=O)Nc2cccc(C(=O)NCC3(N4CCCCC4)CCCCC3)c2)cc1F | 7 | · | · | -0.8 | ·
Cc1ccc(CNc2ncnc3cc(Cl)ccc23)o1 | -3 | -5% | 11 | -5.4 | -13
Cc1ccc(S(=O)(=O)N(CC(=O)Nc2cccc([N+](=O)[O-])c2)Cc2ccc(Cl)cc2)cc1 | 2 | 0% | 2 | 2.8 | -31
CC1(c2ccccc2)CC(C)(C)N(C(N)=O)c2ccccc21 (configuration not stated) | -2 | · | · | -0.6 | ·
CC(C)C(=O)N1CCN(c2ccccc2NC(=O)COc2ccc(C3CCCCC3)cc2)CC1 | 6 | · | · | 10 | ·
Cc1ccc(S(=O)(=O)N2CC(C)N(S(C)(=O)=O)C2)cc1 (configuration not stated) | 4 | · | · | 1.3 | ·
O=C(NC1CCCCC1)c1cc(Cl)ccc1[N+](=O)[O-] | 1 | 3% | -2 | -1.9 | -22
c1ccc2c(CN3CCCCC3)csc2c1 | 5 | -3% | -5 | 2.1 | -30
CN(C)c1cccc(-c2nnc(SCCCC#N)o2)c1 | -4 | -19% | -4 | -1.4 | -31
CC(C)CCN(CCC(C)C)CC(O)Cn1c2ccccc2c(=O)c2ccccc21 (configuration not stated) | 81 | 22% | · | i | ·
CCc1cccc(C)c1NC(=O)CSc1nc2ccc(N3C(=O)c4ccccc4C3=O)cc2s1 | -7 | · | 2 | 1.3 | -28
CCc1ccc(NC(=O)NCCCN2CCCC2=O)cc1 | -22 | · | · | 0.3 | ·
COc1ccc(-n2c(C)cc(/C=C3\SC(=S)NC3=O)c2C)cc1 | 6 | -13% | -4 | -9.1 | ·
Cc1ccc(C2CC(C(F)(F)F)n3ncc(C(=O)NCc4ccco4)c3N2)cc1 (configuration not stated) | 99 | <0.2µM* | -15 | -4.2 | -35
CCCCNC(=S)N(C)/N=C/c1c(F)c(F)c(F)c(F)c1F | 99 | ? | -15 | 1.7 | 8
O=C(NCc1ccccn1)c1cc(-n2cnnc2)ccc1Cl | 2 | -4% | 0 | -0.6 | -10

Continuation.
SMILES | Mtb betalactam | Mtb H37Rv | Arbovirus inh | RecA splice inh | YopH inh | others
CCn1cc(CCC(=O)NCc2cccc(OC)c2OC)c2ccccc21 | 7 | · | · | 2.4 | ·
COC(C[C@@H](O)CC(=O)[C@H](C)OCc1ccccc1)OC | · | -7% | · | 0.3 | ·
C=CCOc1c2ccc(C(=O)NCc3ccc(C)cc3)cc2nn1C | -5 | 1% | -2 | -0.6 | -23
CCOC(=O)c1c(C(C)(C)C)oc2ccc(OCC#N)cc12 | 13 | 3% | -8 | -1.4 | -2
O=C(COc1ccc(Br)cc1)NNC(=S)NCc1ccccc1 | 3 | · | · | 2.7 | ·
Cc1ccccc1-n1c(Cn2c(=O)sc3ccccc32)nnc1SCC(=O)N1CCCC1 | -6 | · | -3 | 1.7 | -37 | Arbovirus inh repeat=0
O=c1oc2c(CN3CCCCC3)c(O)ccc2c2c1CCCCC2 | -18 | · | 10 | -99 | -52
Cc1cccc(N2CCN(S(=O)(=O)c3ccc(-c4cc(C)no4)s3)CC2C)c1 (configuration not stated) | -5 | · | · | 0.0 | ·
O=C(C/C(=N\NC(=O)c1ccccc1Br)C(F)(F)F)c1cccs1 | 15 | 12% | 28 | 8.9 | -14
O=C(NCCc1ccccc1)Nc1ccc(Cl)cc1 | -4 | 10% | -7 | -5.3 | -1

Quoted from above for reference:
SMILES | Mtb betalactam | Mtb H37Rv | Arbovirus inh | RecA splice inh | YopH inh | others
O=C(COc1ccc(Br)cc1)NNC(=S)NCc1ccccc1 | 3 | · | · | 2.7 | ·
Cc1ccccc1-n1c(Cn2c(=O)sc3ccccc32)nnc1SCC(=O)N1CCCC1 | -6 | · | -3 | 1.7 | -37 | Arbovirus inh repeat=0

Assay outcomes (PubChem)
